# VDR inh = blocks the human vitamin D receptor | P11473 | VDR-SRC2-3 peptide fluorescence polarization, 2 h | Potency, µM, inactives show max response, negative = inhibition, hits mostly inhibitors | hit rate 0.93% among 400,000 | AID 504847; active = well fitted inhibition curve with a large enough effect; inconclusive = small, poorly fitted or top-dose-only effect, or another doubt; inactive = no such curve, though single readings can be large or run the other way; also: series mostly up to about 120 µM
# Target sequence (P11473 whole entry, looked up): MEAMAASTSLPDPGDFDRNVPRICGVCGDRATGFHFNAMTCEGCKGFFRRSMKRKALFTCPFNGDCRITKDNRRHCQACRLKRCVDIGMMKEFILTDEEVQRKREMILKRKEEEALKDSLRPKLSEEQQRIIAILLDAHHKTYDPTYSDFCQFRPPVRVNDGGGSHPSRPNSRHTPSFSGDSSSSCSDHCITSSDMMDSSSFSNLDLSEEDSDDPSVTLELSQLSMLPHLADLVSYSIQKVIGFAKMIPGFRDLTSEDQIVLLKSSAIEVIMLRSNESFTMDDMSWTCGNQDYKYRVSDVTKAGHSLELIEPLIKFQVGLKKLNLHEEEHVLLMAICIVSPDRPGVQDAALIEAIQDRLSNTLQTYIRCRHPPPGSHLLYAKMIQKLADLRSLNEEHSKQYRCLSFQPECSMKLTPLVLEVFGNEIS
#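 Measured by FP: displacement of SRC2-3 coactivator peptide from VDR by library compounds, following a two-hour ambient incubation.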
# Starred values were filed as active, the others as inactive; ? = inconclusive; & = joins results of further samples; [ ] = dose if it differs, or a comment. % is scaled to controls: 0 for no effect and ±100 for the full control effect; potency is read from the fitted curve at half-maximal effect. The list is partial; count on the stated rates, not on these rows.
SMILES,VDR inh
CC(C)COc1cccc(C(=O)NC2(C)CCS(=O)(=O)C2)c1 (centres undefined),-3%
CCCNCc1cc(Cl)c(OCC)c(Cl)c1,3%
O=C(O)CC(NC(=O)C1c2ccccc2Oc2ccccc21)c1ccc(OC2CCCC2)cc1 (centres undefined),1%
O=C(Nc1cccc(Cl)c1Cl)C1CCCO1 (centres undefined),18%
CCOC(=O)c1sc(NC(=O)CNCc2cccnc2)c(C(=O)OCC)c1C,3%
CN1C(=O)/C(=C\c2ccc(-c3ccccc3)o2)SC1=S,15%
O=C(Nc1ccc(C(=O)c2ccc(C(=O)O)c(C(=O)O)c2)cc1)c1ccccc1,-2%
O=C(O)/C=C\C(=O)NC1CCCCC1,-12%
COc1ccc(C2CC(=O)n3nc(C45CC6CC(CC(C6)C4)C5)nc3S2)cc1OC (centres undefined),0%
CCC(=O)c1ccc(OCC(O)Cn2c(C)nc3ccccc32)cc1 (centres undefined),-1%
O=C(Nc1cccc2ccccc12)c1ccc(Cn2cc(Cl)cn2)cc1,6%
COc1ccccc1CNC(=O)CSc1cc(C)[nH]c(=O)n1,2%
CCc1cc2cc(C)ccc2nc1SCC(=O)NC1CCCC1,-21%
COc1ccc(Cl)cc1S(=O)(=O)N1CCC(C(=O)NCc2ccccn2)CC1,2%
COc1ccc(C(C(=O)NCCC(C)C)N(CCO)C(=O)c2snc(C(N)=O)c2N)cc1OC (centres undefined),9%
COc1ccc(OC)c(NC(=O)CSc2nc3[nH]c(=O)[nH]c(=O)c3s2)c1,15%
S=c1[nH]nc(-c2cc(-c3ccccn3)nc3ccccc23)o1,-22%
C/C=C\C=C/C(=O)Nc1cccc(C2=NOC3(C2)C[C@@H](C(N)=O)N(C(=O)[C@H]2CCC(=O)N2)C3)c1 (some centres undefined),-20%
Cc1ccccc1Oc1ncnc2oc(-c3ccccc3)cc12,1%
O=P(Cc1nnco1)(c1ccccc1)c1ccccc1,-1%
O=C1/C(=C/c2cccnc2)SC(=S)N1CCc1ccccc1,?
C[C@@H]1CN([C@H](C)CO)C(=O)Cc2cc(NS(=O)(=O)c3ccc(Cl)cc3)ccc2O[C@H]1CN(C)Cc1ccc(C(F)(F)F)cc1,7%
CCOCCCNC(=O)c1c(C)c(C(=O)OCC)n(C)c1C,-7%
CN1CCN(C(CNC(=O)c2ccccc2)c2ccc3c(c2)OCO3)CC1 (centres undefined),6%
C=CCOC(=O)N[C@H](/C(C(=O)OC)=C(\C)NCc1ccccc1)c1ccc2c(c1)OCO2,-1%
Cc1ccc(N2C(=O)CC(Nc3ccc(Cl)c(S(=O)(=O)N(C)C)c3)C2=O)c(C)c1 (centres undefined),1%
CC1CCN(CC2C(=O)O[C@@H]3C[C@@]4(C)CCC[C@H](C)C4=C[C@H]23)CC(C)(C)C1 (some centres undefined),-9%
CCc1ccc(NS(=O)(=O)c2ccc3[nH]cc(C(=O)NCC4CCCO4)c(=O)c3c2)cc1 (centres undefined),-5%
COc1cc(/C=C(/C#N)c2nc3ccccc3[nH]2)ccc1OCC(=O)Nc1ccccc1C(C)C,0%
COC(=O)C1=C(C)NC(=O)/C1=C\c1cc(C)n(-c2ccccc2)c1C,-14%
Cc1c(NN=C(C#N)C#N)c(=O)n(-c2ccccc2)n1C,6%
CSc1cccc(NS(=O)(=O)c2ccc3[nH]cc(C(=O)N4CCCC4)c(=O)c3c2)c1,-19%
C/C(=N\NC(=O)c1cc([N+](=O)[O-])cc([N+](=O)[O-])c1)c1ccco1,1%
CC(=O)C(C)Oc1ncn(-c2ccccc2)n1 (centres undefined),-1%
O=C(c1ccoc1)N1CCC2(CC1)Oc1ccc(Cl)cc1C(=O)C21CC(c2cccnc2)=NO1 (centres undefined),-9%
COc1ccc(C2Nc3ccccc3C(=O)N2NS(=O)(=O)c2ccccc2)cc1 (centres undefined),14%
CCN(CC(=O)NC1CCS(=O)(=O)C1)C(=O)COc1ccccc1-c1ccccc1 (centres undefined),3%
COc1ccc(C2C(C#N)=C(N)N(N(C)C)C3=C2C(=O)CC(C)(C)C3)cc1 (centres undefined),12%
Cc1c(C(=O)N2CCN(c3ncccn3)CC2)oc2ccc(F)cc12,-6%
Cc1ccc(/C=N/NC(=O)C[n+]2ccccc2)o1,-14%
c1coc(Cn2c(-c3ccco3)nc3ccccc32)c1,9%
C=CCn1c(SCc2ccccc2Cl)nnc1-c1sc2nc(C)cc(C)c2c1N,11%
C=C(C)CNC(=S)N/N=C/c1ccco1,-2%
CN(C)/C=C1/C=C(C=O)OC1=O,-17%
C[C@H](NC(=O)C1CCN(S(=O)(=O)c2ccccc2)CC1)C(=O)NCc1ccccn1,12%
O=C1CC(N(C(=O)c2ccco2)c2ccc(F)cc2)C(=O)N1c1ccc(F)cc1 (centres undefined),16%
Cc1c(CNC(=O)C2CC2)c(-n2cccc2)n(Cc2ccccc2)c1C,-18%
Nc1c(SCCC(=O)O)ccc2c1C(=O)c1ccccc1C2=O,14%
OCCCNc1cc(-c2ccccc2)nc2cc(-c3ccc(F)cc3)nn12,19%
COc1ccc(C(=O)CSc2nnnn2Cc2ccccc2)cc1,-7%

# Other records follow:
SMILES,VDR inh
Cc1cc(C)c(S(=O)(=O)n2nc(C)c(Br)c2C)c(C)c1,-17%
CCOC(=O)Cn1c2c(c(-c3ccccc3OC)cc1=O)CCCC2,9%
CCOC(=O)C1CCN(C(=O)CN(c2ccc(OC)cc2)S(=O)(=O)c2c(C)noc2C)CC1,-21%
Cn1cc(S(=O)(=O)N2CCCCC2)cc1C(=O)N1CCN(c2ccccc2F)CC1,6%
COc1ccc(NCC(=O)n2c(C)c(C)c3ccccc32)cc1OC,-9%
O=C(COC(=O)c1ccc(O)cc1O)c1ccc2c(c1)OCO2,-1%
COC(=O)Cn1nc(C)c2ccccc2c1=O,5%
CN1CCN(C(=O)CN(c2cccc(Br)c2)S(=O)(=O)c2ccccc2)CC1,-3%
Cc1ccc(S(=O)(=O)N(c2ccc(Br)cc2)C2C=CS(=O)(=O)C2)cc1 (centres undefined),-13%
O=C(Nc1ccc(F)c(Cl)c1)c1ccc2c(=O)n3c(nc2c1)CCCCC3,-12%
COc1ccc(CNC(=O)C2CCN(S(=O)(=O)N3CCCCC3)CC2)cc1,-6%
COc1ccc(C(=O)NNC(=O)c2cccc(S(=O)(=O)N3CCOCC3)c2)cc1,10%
N#Cc1c(NCCN)nc(-c2ccco2)c2c1CCCC2,17%
Cc1ccc(C)c(CSc2cn(CC(=O)N3CCCC3)c3ccccc23)c1,9%
CC1(C)COC(c2cccn2Cc2ccccc2Cl)=N1,-5%
Cc1ccc(Cn2nc(C)cc2C(=O)Nc2ccc(Cl)cc2)cc1,5%
CCCCCc1nc2c(=O)n(C)c3ccccc3c2o1,3%
Cc1ccccc1C(=O)NC1CC2CCCC(C1)N2Cc1ccccc1 (centres undefined),7%
CC(=O)N/C(=C\c1ccccc1)C(=O)OCC(=O)N(C)C1CCS(=O)(=O)C1 (centres undefined),-9%
O=c1cc(-c2ccc(O)cc2)oc2c([C@@H]3O[C@H](CO)[C@@H](O)[C@H](O)[C@H]3O)c(O)c([C@@H]3O[C@H](CO)[C@@H](O)[C@H](O)[C@H]3O)c(O)c12,1%
CCC(C)N(C)Cc1cccc(C2(O)CCN(S(=O)(=O)c3ccc(F)cc3)CC2)c1 (centres undefined),1%
C[C@]12c3[nH]c4ccc(Cl)cc4c3CCN1C(=O)[C@@H](CC(=O)NCC13CC4CC(CC(C4)C1)C3)C[C@@H]2C(=O)N1CCOCC1,-20%
CC1CN(Cc2ccccc2)C(=O)NC1=O (centres undefined),-6%
CCC(C)(C)NC(=O)C(c1ccccc1Cl)N(C(=O)CCC(=O)Nc1cc(C)on1)C(C)(C)C (centres undefined),-25%
Cc1onc(-c2ccccc2)c1C(=O)N/N=C/c1ccc(Br)cc1,18%
Cn1c(=O)oc2cc(C(=O)c3ccccc3)ccc21,11%
O=C(CCCl)N(Cc1nc2ccccc2c(=O)[nH]1)Cc1cccs1,-13%
CCCCC(=O)OCC(=O)Nc1cccc(S(=O)(=O)NC2=NCCCCC2)c1,-8%
O=C(CSc1nc2c(c(=O)[nH]1)CN(Cc1ccc(F)cc1)CC2)Nc1ccccc1Cl,1%
CCOC(=O)c1c(C)[nH]c(C(=O)/C(C#N)=C/c2ccc(OCC)cc2)c1C,-26%
O=c1c2c(n3nnnc3n1-c1ccccc1)-c1ccccc1CC21CCCC1,-3%
CC(Oc1ccc(Cl)cc1Cl)C(=O)NCCCCc1ccccc1 (centres undefined),-10%
O=C1CC(=C(c2ccccc2)c2ccccc2)C(=O)N1CCN1CCN(c2cccc(Cl)c2)CC1,7%
Cc1onc(-c2c(F)cccc2Cl)c1C(=O)N1CCN(c2ncccn2)CC1,-21%
CN=C1c2cc3c(Br)c(OC)ccc3n2CCN1C,17%
CC(C)N(Cc1nc(-c2ccc(Cl)cc2)no1)C(=O)c1ccc(C(C)(C)C)cc1,1%
CCOc1ccc(C2C(C(=O)Nc3ccc(OC)cc3)=C(C)Nc3nc(SCc4ccc(Cl)cc4)nn32)cc1 (centres undefined),12%
O=C(O)c1cccc(NC(=O)C2CCCO2)c1 (centres undefined),36%[activator]
Cc1ccc([C@H]2C(C(=O)O)=C[C@@H](CC3CCCC3)N2S(=O)(=O)c2ccc(C)cc2)cc1,-15%
CCc1ccccc1NC(=O)Nc1c[nH]c(=O)[nH]c1=O,0%
Cc1ccc2[nH]c3c(=O)[nH]ncc3c2c1,16%
O=C(CSc1ccc(-c2ccco2)nn1)c1cccc([N+](=O)[O-])c1,?
O=C(COc1ccc(S(=O)(=O)N2CCOCC2)cc1Cl)NCCCn1ccnc1,19%
O=C(c1ccc2c(c1)OCCO2)C1CCN(S(=O)(=O)c2ccccc2F)CC1,-5%
CN1CCCN(S(=O)(=O)c2cccc(C#N)c2)CC1,1%
COc1ccc(C2=NN(C(=O)CCCC(=O)O)C(c3cn(-c4ccccc4)nc3-c3ccccc3)C2)cc1 (centres undefined),8%
O=C(O)c1cc(NC(=O)c2ccco2)cc(NC(=O)c2ccco2)c1,6%
OCCN1CCN(C2CCC(c3ccc(F)cc3)c3ccc(F)cc32)CC1 (centres undefined),7%
Cc1cc(S(=O)(=O)N2CC(=O)N(CCc3ccccc3)C(=O)C2)ccc1F,11%
C=C(C)COc1ccc(-c2nc(N)ncc2Oc2ccc(OC)cc2)c(O)c1,-7%

# Further compounds:
SMILES,VDR inh
O=C1CCCC/C=C\C[C@H](CC(=O)N(CCO)Cc2ccccc2)C(=O)N2CCC[C@@H]2CO1,-11%
COc1ccc(S(=O)(=O)N2CCN(C(=O)c3ccc([N+](=O)[O-])o3)CC2)cc1,9%
Cc1cc(Br)c(NC(=O)CCNC(=O)OCc2ccccc2)cc1C,-12%
COC(=O)c1cccc(CN2C(=O)SC(Nc3ccc(C)cc3)C2=O)c1 (centres undefined),1%&-2%
Cc1c(C(=O)NCc2ccccn2)sc2nc(-c3ccccc3)cn12,-15%
COC(=O)CSc1nnc(NC(=O)CCc2ccccc2)s1,-1%
CCOc1ccc(-n2cnnn2)cc1S(=O)(=O)Nc1c(C)cccc1C,6%
CCCCOC(=O)c1cccnc1,-25%
CC1CCCCC1NC(=O)c1ccc(CSc2nc3ccncc3[nH]2)cc1 (centres undefined),-8%
O=C(NCCCN1CCCC1)Nc1cccc2ccccc12,5%
COc1ccc(-c2nnc(NC(=O)c3cccs3)s2)c(OC)c1,-14%
Cn1c(SCC(=O)Nc2ccc3c(c2)OCCO3)nnc1-c1ccccn1,7%
CCCOc1ccccc1C1CC(=O)NC2=C1C(=O)CCC2 (centres undefined),-1%
O=c1c(=O)n(Cc2ccc(Cl)cc2)ccn1Cc1ccc(F)cc1,-2%
O=C(Cn1cc(S(=O)(=O)N2CCCC2)c(S(=O)(=O)N2CCCC2)c1)Nc1ccccc1,-3%
CCc1ccc(CNC(=O)C(=O)NCC2CCCO2)cc1 (centres undefined),1%
O=C(c1cccc(Br)c1)N1CCN(S(=O)(=O)N2CCCCC2)CC1,-20%
Cc1ccc(C)c(NC(=O)CCC(=O)NNC(=O)COc2cc(C)ccc2C)c1,4%
COC(=O)c1cc2oc3ccccc3c2n1CC(=O)Nc1ccc(Cl)cc1F,8%
Cc1ccc(NC(=O)c2ccc(Oc3ncccn3)cc2)cc1,-14%
